# Vif TR-FRET: inhibitors of Vif binding to APOBEC3G peptide, primary screen, biochemical, TR-FRET, GST-Vif 1-94, biotin-A3G peptide, dose response retest (AID 1117319); TR-FRET GST-Vif / biotin-A3G peptide binding; higher % means a stronger effect; test concentration not given here; strong numbers were not always called active; one-dose inhibition, %; IC50 in µM for titrated hits; 0.57% of 260,000 active;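 active means above the screen mean plus three standard deviations and confirmed in dose response; inconclusive means results disagree or hit not tested in dose response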;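 further: Vif residues 1-94 fused to GST binding biotinylated APOBEC3G peptide 110-148; 0% = full assay without inhibitor and 100% = GST in place of GST-Vif; retest series ran down from 100 µM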
# E coli growth: inhibitors of Escherichia coli growth; AID 1053175; OD600 absorbance (concentration not given with the values); 0.21% of 330,000 active; OD600, 23 h; stronger effect = lower value;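 active means OD600 absorbance below the run mean of sample wells minus 3.6 SD, in any replicate, cut at about 0.56 in these data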;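 further: stock transfer was 300 nL into about 60 µL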
# RanGTP-Impb inh: inhibitors of RanGTP-importin-beta interaction, primary screen, biochemical, FRET, CFP-Ran, YFP-importin-beta, homogeneous | 1.1% of 300,000 active | cell-free CFP-Ran/YFP-importin-beta FRET ratio | inhibition, % (no concentration beside the values);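 active means most replicates above 15%; inconclusive means exactly half above 15%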;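 further: 0% = DMSO wells and 100% = Ran loaded with GDP instead of GTP; wells of about 40 µL received 100 nL stock; the first replicate is given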
# UCH37 DUB inh: human UCH37 deubiquitinating enzyme inhibition | Q9Y5K5 | purified proteasome/UCH37, Ub-AMC cleavage fluorescence | inhibition, % (test concentration not listed) | 0.33% of 330,000 active | AID 588478;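 active means mean of two replicates above 20%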;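 further: 0% = compound-free wells with enzyme and 100% = wells lacking proteasome; stock transfer was 100 nL into about 20 µL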
# Target sequence (Q9Y5K5 whole entry, looked up): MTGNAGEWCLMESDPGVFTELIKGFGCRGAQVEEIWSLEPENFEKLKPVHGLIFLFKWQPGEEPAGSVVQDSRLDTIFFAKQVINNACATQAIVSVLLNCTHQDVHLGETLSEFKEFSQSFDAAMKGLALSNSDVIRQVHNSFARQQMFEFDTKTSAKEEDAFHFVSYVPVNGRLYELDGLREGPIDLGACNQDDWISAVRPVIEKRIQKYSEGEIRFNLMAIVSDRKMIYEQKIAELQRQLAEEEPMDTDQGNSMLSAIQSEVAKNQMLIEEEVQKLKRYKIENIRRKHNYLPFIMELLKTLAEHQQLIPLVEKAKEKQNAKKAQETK
#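 Material: human UCH37 enzyme supplied as purified proteasome complex. Measure: % inhibition of Ub-AMC cleavage fluorescence. Medium: pH 7.4 Tris-HCl (50 mM) with ovalbumin, ATP-MgCl2, DTT. Times: 30 min preincubation with enzyme, 25 min cleavage at room temperature. Detection: AMC fluorescence intensity at 355/460 nm.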
# HNF4A DNA FP: change in binding of human HNF4 alpha to DNA; activity change, % at 10 µM; 0.3% of 360,000 active; HNF4a-FITC DNA binding, fluorescence polarization, 1 h; P41235; in the data active means activity change above about 30%, passing the limit was not always enough;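 further: controls were the assay level and a saturating level of protein; the project sought stronger binding though the title names inhibitors; some compounds called inactive have numbers as strong as hits; positive values seem to mean higher polarization but the record does not say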
# Target sequence (P41235 whole entry, looked up): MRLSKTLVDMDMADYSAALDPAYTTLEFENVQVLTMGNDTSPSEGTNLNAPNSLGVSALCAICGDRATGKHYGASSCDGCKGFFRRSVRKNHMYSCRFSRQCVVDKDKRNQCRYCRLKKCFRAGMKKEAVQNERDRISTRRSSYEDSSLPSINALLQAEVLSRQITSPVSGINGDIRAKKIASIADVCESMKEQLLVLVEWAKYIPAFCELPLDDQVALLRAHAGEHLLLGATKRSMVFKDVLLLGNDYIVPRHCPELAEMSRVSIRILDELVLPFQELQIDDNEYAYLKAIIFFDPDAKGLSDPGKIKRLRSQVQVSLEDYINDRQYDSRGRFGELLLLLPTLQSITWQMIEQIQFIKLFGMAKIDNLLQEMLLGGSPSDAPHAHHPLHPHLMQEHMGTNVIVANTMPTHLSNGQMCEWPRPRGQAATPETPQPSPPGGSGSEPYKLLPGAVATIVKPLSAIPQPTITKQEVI
# FGF22 binding: binders of recombinant human FGF22 by thermal shift; Q9HCT0; SYPRO orange fluorescence; percent of sucrose octasulfate shift, DMSO zero; calls only at 9.99 µM; 1.5% of 340,000 active; AID 651658;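 active means melting point raised past a set limit in the mean and every replicate; inconclusive means no clear call; three in four hits are not shown here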
# Target sequence (Q9HCT0 whole entry, looked up): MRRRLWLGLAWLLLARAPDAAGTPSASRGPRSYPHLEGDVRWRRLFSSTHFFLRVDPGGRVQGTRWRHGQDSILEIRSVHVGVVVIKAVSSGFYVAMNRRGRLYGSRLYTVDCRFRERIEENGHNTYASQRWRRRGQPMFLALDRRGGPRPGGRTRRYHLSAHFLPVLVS
# AF4-AF9 inh: blocks AF4 peptide binding to human AF9. P42568. AlphaScreen, biotin-AF4 peptide binding to FLAG-AF9. inhibition, % at 10 µM. 0.47% of 350,000 active;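 active means every replicate reaching a set inhibition limit, whatever the replicate mean, cut at about 25% in these data; inconclusive means mean inhibition reaches that limit but some replicates miss it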;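 further: 0% = plate neutral control median and 100% = total signal loss; the record names both 10 and 1 µM as test concentration; the first replicate is given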
# * hit, by the source's call; i = inactive; ? = inconclusive; nt = not tested or not shown; & = joins results of further samples. Only part of the results is shown; count on the stated rates, not on these rows.
SMILES,Vif TR-FRET,E coli growth,RanGTP-Impb inh,UCH37 DUB inh,HNF4A DNA FP,FGF22 binding,AF4-AF9 inh
CCOc1cc(NS(=O)(=O)c2ccccc2)c(OCC)cc1NC(=O)c1ccco1,?,0.73,8.4,-2.2,4.5,nt,nt
CCOc1ccccc1N1CCN(C(=O)c2cc(-c3cc(OC)ccc3OC)nc3ccccc23)CC1,nt,0.67,2.5,-20,0.9,i,5.5
CCN1CCCC1CNCc1ccc(OCc2ccc(Cl)nc2)c(OC)c1 (stereo not given),18%,0.68,-0.5,4.6,-2.5,i,1.6
CC(C#N)(NC(=O)CN1CCN(S(=O)(=O)c2cccc(F)c2)CC1)C1CC1 (stereo not given),-6%,nt,nt,nt,1.4,i,-3.4
CN(CC(=O)NCc1ccccc1)S(=O)(=O)c1ccc2c(c1)CCC(=O)N2,6%,0.65,3.7,2.5,-0.3,i,-1.3
CCC1CCCCN1C(=O)CCCOc1ccccc1 (stereo not given),0%,0.71,-3.0,-0.8,-2.1,nt,nt
CN1CCN(C(=O)c2cc(Cl)ccc2Cl)CC1,-10%,0.74,2.2,0.2,0.2,nt,nt
O=C(Cc1ccc(Cl)cc1)Nc1cccc(S(=O)(=O)Nc2ccccc2F)c1,nt,0.65,5.3,3.0,-1.4,nt,nt
O=C(COc1cccc2ccccc12)NNC(=O)c1cccs1,-1%,0.71,-1.9,2.3,1.9,nt,nt
COCC(C)N1C(=O)Cc2c1nc(N)c1c(N)nc(N3CCN(c4ccccc4F)CC3)c(C#N)c21 (stereo not given),11%,0.72,0.9,-28,-4.4,i,-12
O=C(C1CC(=O)N(C2CCCC2)C1)N1CCN(c2cccc(Cl)c2)CC1 (stereo not given),nt,0.69,1.8,2.9,-0.9,i,-0.2
c1ccc2c(c1)nc1n2CN(Cc2ccc3c(c2)OCO3)CN1,16%,0.7,-0.3,3.2,3.5,nt,nt
Cc1sc(NC(=O)c2ccco2)nc1-c1ccc2c(c1)CC(C)N2C(=O)C1CC1 (stereo not given),-1%,0.71,3.9,-13,4.3,i,4.3
O=C(c1cccc(S(=O)(=O)NCc2ccccc2)c1)N1CCN(c2ccc(F)cc2)CC1,4%,0.69,nt,5.5,-2.0,i,26*
COc1ccc(S(=O)(=O)N2CCCC2CNC(=O)C(=O)NCc2ccco2)cc1 (stereo not given),4%,0.63,0.6,3.8,0.9,i,-13
CC(C)CNS(=O)(=O)c1ccc(CCC(=O)NCC2CCCO2)cc1 (stereo not given),2%,0.69,-3.7,4.2,3.2,nt,nt
CC1=CC(C)(C)N=C(Nc2ccc(C)cc2)S1,-1%,0.66,3.0,7.4,0.6,nt,nt
Nc1cc(Nc2ccccc2)ccn1,nt,nt,nt,nt,1.3,i,?
CC(C)(C)NC(=O)C(=O)NCCC1=CCCCC1,3%,0.7,1.3,0.4,0.1,nt,nt
Cc1cc(C(=O)CS(=O)(=O)c2ccccc2)cc(C)c1O,4%,0.64,2.0,8.9,2.4,i,0.2
Cc1ccccc1NC(=O)C1CC(=O)n2ncnc2N1 (stereo not given),-16%,0.64,-0.6,1.5,1.0,i,-2.7
CC(=O)OCC(O)C1(O)CCC2C3CCC4=CC(=O)CCC4(C)C3C(O)CC21C (stereo not given),nt,nt,nt,nt,7.0,i,-3.0
O=C(c1nnc(-c2ccccc2)o1)C1CC1,nt,0.7,-0.6,1.2,5.5,i,-2.5
CCOc1cc(CNCc2ccncc2)cc(Br)c1OCc1ccccc1F,10%,0.66,1.4,3.6,-12,nt,nt
COc1ccccc1N1CCN(C(=O)CSc2nc(-c3ccccc3)cc(=O)[nH]2)CC1,-1%&12%,0.78,2.2,3.4,-4.6,nt,nt

# Carrying on.
SMILES,Vif TR-FRET,E coli growth,RanGTP-Impb inh,UCH37 DUB inh,HNF4A DNA FP,FGF22 binding,AF4-AF9 inh
Cc1cc(C)n(S(=O)(=O)c2ccc3oc(=O)ccc3c2)n1,nt,0.67,-2.3,0.2,-1.8,i,0.3
CCCCC[C@@H](C)N1C[C@H](COCc2ccccc2)Oc2cc(N3CC[C@H](N(C)C)C3)ccc2S1(=O)=O,nt,nt,nt,nt,6.8,i,13
CCC(C)Sc1ccc(-c2nc3cnccn3c2NC2CCCCC2)cc1 (stereo not given),nt,nt,30*,nt,8.8&15,i,-6.8
CC(=O)Nc1nc(=S)ss1,-5%,0.65,0.2,4.9,1.5,nt,nt
O=C(O)c1cc(NC(=O)c2cccc(N3C(=O)c4ccccc4C3=O)c2)cc(C(=O)O)c1,6%,0.7,4.1,1.0,-3.4,i,-0.4
O=C1C(C=NCCCN2CCCC2=O)=C(O)c2ccccc21,4%,0.7,0.4,5.4,12,nt,nt
CN(C)c1ccc(NC(=O)CSc2nnc(-c3ccco3)c(-c3ccco3)n2)cc1,nt,0.71,-2.3,6.3,-1.4,i,11
O=C(CCc1ccc(S(=O)(=O)N2CCOCC2)cc1)N1CCc2ccccc2C1,nt,0.7,4.2,-0.8,-2.7,nt,-0.9
CC(=O)c1cccc(S(=O)(=O)NC(C)C2CC3CCC2C3)c1 (stereo not given),nt,0.64,1.8,1.9,2.2,i,-1.1
C=CCNC(=O)COC(=O)c1ccc(C)c(NC(=O)c2ccco2)c1,9%,0.68,-5.2,3.8,19,i,-3.4
CCn1c(SCCN2CCCCC2)nc2c1c(=O)n(C)c(=O)n2C,nt,nt,nt,nt,4.0,i,-4.5
O=C(Cc1ccccc1)N/N=C/c1cc(Br)cs1,-1%,nt,2.6,nt,-0.5,i,-1.7
Cc1occc1C(=O)N1CCN(Cc2ccccc2)CC1,30%,0.69,0.7,3.2,-6.3,i,-1.0
CCOC(CNC(=O)C(=O)Nc1cc2c3c(c1)CCC(=O)N3CCC2)OCC,nt,0.66,1.8,3.5,1.5,i,-0.3
CC(C)N1CCc2c(sc(NC(=O)c3ccc4ccccc4c3)c2C(N)=O)C1,nt,0.68,148*,-19,63*,i,-2.6
Nc1cc(C(=O)N2CCN(c3ccccc3Cl)CC2)ccc1N1CC2CC(C1)c1cccc(=O)n1C2 (stereo not given),-8%,nt,nt,nt,4.0,i,7.6
COCC(=O)OCC(=O)Nc1ccc(Cl)cc1[N+](=O)[O-],1%,0.67,-1.4,1.7,3.3,i,2.0
O=C(NC(=S)N1CCCCCC1)c1cccc([N+](=O)[O-])c1,nt,0.68,nt,-1.3,-0.9,i,-11
C/C(=N\NC(=S)NCc1ccccc1)c1ccc2ccccc2c1,4%,nt,0.7,nt,2.1,nt,nt
C/C=C\C(=O)Nc1cccc(C2=NOC3(C2)C[C@@H](C(N)=O)N(C(=O)c2ccc(Cl)cc2)C3)c1 (stereo not given in full),-1%,nt,3.0,2.1,-2.8,i,-6.4
CC(=C/c1ccco1)/C=N/NC(=O)CSc1nnc(SCc2ccc(C)cc2)s1,nt,nt,-5.3,nt,3.4,i,0.6
Cc1cccnc1NC(=S)Nc1ccc(F)cc1F,-10%,0.72,6.0,3.4,-0.9,i,0.3
CC1(C)Cc2cccc(C(=O)NCc3ccco3)c2O1,18%,0.64,4.0,-17,-0.8,i,-0.3
CC1CCCCC1NC(=O)CN1C(=O)NC(Cc2ccccc2)(Cc2ccccc2)C1=O (stereo not given),-2%,0.65,1.4,2.7,6.1,nt,nt
COc1cccc(N(CC(=O)O)S(=O)(=O)c2ccccc2)c1,10%,0.67,-2.3,0.0,1.9,nt,nt

# Part of the list above in another layout.
Structure | Vif TR-FRET | E coli growth | RanGTP-Impb inh | UCH37 DUB inh | HNF4A DNA FP | FGF22 binding | AF4-AF9 inh
Cc1sc(NC(=O)c2ccco2)nc1-c1ccc2c(c1)CC(C)N2C(=O)C1CC1 (stereo not given) | -1% | 0.71 | 3.9 | -13 | 4.3 | i | 4.3
O=C(c1cccc(S(=O)(=O)NCc2ccccc2)c1)N1CCN(c2ccc(F)cc2)CC1 | 4% | 0.69 | nt | 5.5 | -2.0 | i | 26*

# Further results.
SMILES,Vif TR-FRET,E coli growth,RanGTP-Impb inh,UCH37 DUB inh,HNF4A DNA FP,FGF22 binding,AF4-AF9 inh
COC(=O)c1ccccc1NC(=O)CSc1nnc(Cc2ccc(Cl)cc2)o1,3%,0.67,3.2,1.3,-0.7,nt,nt
O=C(COC(=O)c1c(F)cccc1Cl)NCC1CCCCC1,0%,0.69,nt,5.0,3.8,i,-1.2
CCOc1ccc(CCNC(=O)C2CSC3(C)CCC(=O)N23)cc1OCC (stereo not given),nt,0.69,1.0,-0.8,1.4,i,1.9
Cc1ccc(S(=O)(=O)N2CCC(C(=O)NCCCN3CCOCC3)CC2)cc1,5%,0.63,6.4,-0.7,-0.4,i,2.9
CCn1c(SCC(=O)NC2CCS(=O)(=O)C2)nnc1-c1ccccc1 (stereo not given),?,0.66,0.8,-1.3,3.5,i,0.6
Cn1c(SCC(=O)NCCc2ccccc2)ncc(C(=O)Nc2ccc(F)cc2)c1=O,-92%,0.71,nt,-61,-0.6,i,-2.5
CCOC(=O)Cc1csc(N/N=C/c2ccc(Cl)cc2)n1,7%,nt,-0.3,nt,0.4,i,-4.8
O=S1(=O)c2cccc3cccc(c23)N1Cc1ccc(-c2nnco2)cc1,-4%,0.7,-2.9,-4.1,4.5,nt,nt
C=CCn1c(SCC(=O)N2CC(=O)Nc3ccccc32)nc2scc(-c3ccccc3)c2c1=O,-26%,0.73,6.6,1.3,-2.7,nt,nt
O=C(Nc1c(Cl)cc(Cl)cc1C(=O)NCCN1CCOCC1)c1ccc(Cl)cc1Cl,12%,0.62,3.2,-2.6,1.7,nt,nt
O=C1Nc2ccccc2SC(c2ccccc2)C1O (stereo not given),32%,0.67,-0.7,-1.3,-10,nt,nt
C/C(=N\NC(=O)c1ccc(Cl)cc1)c1cccc(NC(=O)c2cccnc2)c1,0%,nt,1.7,nt,0.6,nt,nt
Cc1c(Cl)cccc1NC(=O)C1COc2ccccc2O1 (stereo not given),nt,0.64,-1.8,0.2,3.1,i,-2.2
Cc1ccc(NC(=O)C(C)OC(=O)Cc2c[nH]c3ccccc23)cc1S(=O)(=O)N1CCOCC1 (stereo not given),0%,0.72,0.9,3.0,0.0,nt,2.9
Oc1[nH]c2ccccc2c1C=Nc1ccc2c(c1)OCO2,7%,0.7,-3.2,1.9,5.0,nt,nt
COC(=O)c1nc(C(=O)OC)c(C(=O)OC)nc1C(=O)OC,-8%,0.74,-5.4,4.3,-3.3,nt,nt
COc1ccc(NC(=O)NNC(=O)c2cc3occc3n2C)c(OC)c1,nt,0.69,-1.5,3.3,-1.1,i,2.7
c1ccc(-n2nnnc2Oc2ccc(-n3ccnc3)cc2)cc1,0%,0.68,-4.6,3.5,1.2,nt,nt
CC(=O)c1ccc(S(=O)(=O)NCCC(=O)OCC(=O)NCCc2ccccc2)cc1,nt,0.72,-0.7,1.7,-3.1,i,-3.9
COc1ccccc1-c1noc(CCC(=O)NC2CCCCC2)n1,-1%,0.68,2.5,1.3,3.3,i,1.1
O=C(CC1C(=O)NCCN1Cc1ccoc1)NCCc1ccc(Cl)cc1 (stereo not given),8%,0.7,-0.8,1.1,-0.9,nt,0.2
CN(CC(=O)Nc1ccccc1Cl)C(=O)COC(=O)c1cccs1,nt,0.64,nt,4.8,0.8,i,3.1
COc1ccc(CCNC(=O)c2noc(C)c2[N+](=O)[O-])cc1OC,2%,0.69,-1.3,1.7,-1.1,i,-1.4
CC1CCC(C(=O)c2c(O)c3ccccc3oc2=O)CC1 (stereo not given),1%,0.63,2.2,1.1,4.7,nt,nt
CN(C)c1ccc(/C=N/N=C/c2ccccc2O)cc1,-4%,nt,-3.0,nt,5.2,nt,nt
C/C(=N/OC(=O)C1CC12CCC2)c1ccc(Br)cc1 (stereo not given),7%,nt,-2.2,nt,3.3,i,0.8
c1ccc(Cn2c(SCCN3CCOCC3)nnc2-c2cccnc2)cc1,1%,0.71,-0.1,5.8,-0.5,nt,nt

# From PubChem BioAssay
